rRNA inh HTS = inhibitors of bacterial rRNA selective over humanized ribosomes; E. coli WT GFP vs humanized-ribosome RFP mutants, fluorescence, 24 h; active compounds read low; DMSO median 0, no signal -100; GFP signal change (wild-type ribosome), % (concentration not given with the values); actives 1.6% (n = 350,000);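 active = significant combined selectivity score with lowered wild-type GFP, culture density cut under 30%, mutant RFP and density less affected; inactive = any of these conditions unmet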; note: one replicate is shown; some compounds called inactive have numbers as strong as hits
AF4-AF9 inh = MLL-AF4/AF9 protein interaction inhibition | P42568 | AlphaScreen, biotin-AF4 peptide binding to FLAG-AF9 | inhibition, % at 10 µM | actives 0.47% (n = 350,000);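 active = every replicate reaching a set inhibition limit, whatever the replicate mean, cut at about 25% in these data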;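 note: 0% = plate neutral control median and 100% = total signal loss; the record names both 10 and 1 µM as test concentration; the first replicate is given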
Target sequence (P42568 whole entry, looked up): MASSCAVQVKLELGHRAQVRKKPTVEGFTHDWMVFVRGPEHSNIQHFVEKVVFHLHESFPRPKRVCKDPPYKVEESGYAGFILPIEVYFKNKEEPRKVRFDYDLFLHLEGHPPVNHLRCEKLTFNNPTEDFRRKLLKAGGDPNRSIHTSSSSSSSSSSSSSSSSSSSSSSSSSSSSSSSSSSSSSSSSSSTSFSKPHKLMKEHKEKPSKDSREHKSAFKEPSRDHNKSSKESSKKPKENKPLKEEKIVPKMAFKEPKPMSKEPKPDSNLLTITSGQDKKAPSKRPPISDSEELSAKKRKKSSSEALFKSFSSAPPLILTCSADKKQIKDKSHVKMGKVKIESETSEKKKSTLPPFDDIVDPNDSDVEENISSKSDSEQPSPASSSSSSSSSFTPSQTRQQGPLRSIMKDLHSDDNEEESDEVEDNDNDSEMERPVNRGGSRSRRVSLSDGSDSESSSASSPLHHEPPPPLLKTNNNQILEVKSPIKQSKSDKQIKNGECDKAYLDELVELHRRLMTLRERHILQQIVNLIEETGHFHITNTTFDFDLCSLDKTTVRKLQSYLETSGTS
rRNA inh HTS OD600 = recorded beside rRNA inh HTS, whose call it bears; OD600 change, %; measured here: OD600 growth;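 optical density of the mix in the first replicate; 0 = DMSO median and -100 = no signal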
rRNA inh HTS RFP = further read-out of rRNA inh HTS, marked with its call; RFP signal change, %; measured here: RFP humanized mutant strains;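 first replicate; 0 = DMSO median and -100 = no signal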
Numbers without * were called inactive. Some of the compounds tested. The share of hits here may be higher or lower than overall.

rRNA inh HTS,rRNA inh HTS OD600,rRNA inh HTS RFP,Molecule,AF4-AF9 inh
4,2,-1.5,C[C@@H]1CCCCO[C@H](CN(C)C)[C@@H](C)CN([C@H](C)CO)C(=O)c2cc(NC(=O)c3ccccc3)ccc2O1,-14
-1,6,15,CN(C)C(=O)c1cc2c(c(-c3cccc(-c4ccc(F)cc4)c3)n1)[C@@H](CCO)N([S@](=O)C(C)(C)C)C2,2.2
0,-7,0.4,C[C@@H]1CN([C@H](C)CO)C(=O)c2cc(NS(=O)(=O)c3ccccc3)ccc2O[C@@H]1CN(C)Cc1ccncc1,-3.1
0,0,2.2,C[C@H](CO)N1C[C@H](C)[C@H](CN(C)Cc2ccccc2)Oc2ncc(C3=CCCCC3)cc2C1=O,2.8
3,8,0.7,C[C@@H]1CN([C@H](C)CO)C(=O)c2cc(C#CC3(O)CCCC3)cnc2O[C@H]1CN(C)C(=O)CC1CC1,-2.2
-4,-5,12,C[C@H](c1ccccc1)N1C[C@H](COCc2ccccc2)Oc2cc(N3CC[C@@H](O)C3)ccc2S1(=O)=O,1.4
0,-4,2.8,O=C(C1CCOCC1)N1C[C@@H]2[C@H](c3ccccc31)[C@@H](CO)N2Cc1ccc(Cl)cc1,0.4
-62,-82,-18,COc1ccc(C(N)c2csc(NC(=O)Nc3cccc(C(F)(F)F)c3)n2)cc1 (configuration not stated),7.9

The results go on:
rRNA inh HTS,rRNA inh HTS OD600,rRNA inh HTS RFP,Molecule,AF4-AF9 inh
1,-3,-0.8,C[C@H]1CCCCO[C@H](CN(C)S(=O)(=O)c2cn(C)cn2)[C@@H](C)CN([C@@H](C)CO)C(=O)c2cc(NC(=O)CCC(F)(F)F)ccc2O1,2.7
5,-2,2.4,O=C(Cc1ccccn1)NCC[C@@H]1CC[C@H](NC(=O)c2ccccc2F)[C@H](CO)O1,0.1
3,7,-5.8,CC(C)NC(=O)Nc1ccc2c(c1)CC(=O)N([C@H](C)CO)C[C@@H](C)[C@H](CN(C)Cc1ccncc1)O2,-1.7
-6,-9,0.2,COCCNC(=O)C[C@@H]1CC[C@H]2[C@H](COc3ccc(NS(=O)(=O)c4ccc(Cl)cc4)cc3C(=O)N2C)O1,-0.2
3,-9,16,CCS(=O)(=O)N1CCCCN2[C@@H](CO)[C@H](c3ccc(C#Cc4ccccc4OC)cc3)[C@@H]2C1,7.3
17,-11,-4.2,COc1ccc(-c2ccc([C@H]3[C@H](C#N)N(C(=O)NC(C)C)[C@H]3CO)cc2)cc1,-0.1
0,-7,-0.8,COc1ccc(S(=O)(=O)N2CCCCN3[C@H](C2)[C@H](c2ccc(C#CCC(C)C)cc2)[C@@H]3CO)cc1,-4.6
-8,1,-1.8,C[C@H](CO)N1C[C@H](C)[C@@H](CN(C)Cc2ccc(C(=O)Nc3ccccc3N)cc2)Oc2c(NC(=O)c3nc4ccccc4s3)cccc2C1=O,2.2

Reformatted: results already given.
| Molecule | rRNA inh HTS | rRNA inh HTS OD600 | rRNA inh HTS RFP | AF4-AF9 inh |
| --- | --- | --- | --- | --- |
| C[C@H](CO)N1C[C@H](C)[C@H](CN(C)Cc2ccccc2)Oc2ncc(C3=CCCCC3)cc2C1=O | 0 | 0 | 2.2 | 2.8 |
| C[C@@H]1CN([C@H](C)CO)C(=O)c2cc(C#CC3(O)CCCC3)cnc2O[C@H]1CN(C)C(=O)CC1CC1 | 3 | 8 | 0.7 | -2.2 |
| C[C@H](c1ccccc1)N1C[C@H](COCc2ccccc2)Oc2cc(N3CC[C@@H](O)C3)ccc2S1(=O)=O | -4 | -5 | 12 | 1.4 |
| O=C(C1CCOCC1)N1C[C@@H]2[C@H](c3ccccc31)[C@@H](CO)N2Cc1ccc(Cl)cc1 | 0 | -4 | 2.8 | 0.4 |

(cont.)
rRNA inh HTS,rRNA inh HTS OD600,rRNA inh HTS RFP,Molecule,AF4-AF9 inh
0,2,-1.0,CC1(Oc2ccc(Cl)cc2)CCN(Cc2cccn2-c2nccs2)C1 (configuration not stated),-1.5
-1,0,0.0,C[C@@H]1CCCCO[C@H](CN(C)C(=O)Nc2ccc3c(c2)OCO3)[C@@H](C)CN([C@@H](C)CO)C(=O)c2cc(NC(=O)c3ccncc3)ccc2O1,-3.4
0,1,-1.4,O=C(N[C@@H]1CC[C@@H](CCn2cc(-c3ccccn3)nn2)O[C@H]1CO)c1cccnc1,-6.8
-5,-5,2.7,C[C@H]1CN([C@@H](C)CO)S(=O)(=O)c2ccc(C3=CCCC3)cc2O[C@H]1CN(C)C(=O)c1ccccc1,0.7
1,10,-5.0,COc1ccc(S(=O)(=O)N2C[C@@H](O)COC[C@H]3O[C@H](CC(=O)NCCCN4CCOCC4)CC[C@@H]32)cc1,-1.9
-3,-2,-2.5,COc1cccc(NC(=O)N(C)C[C@@H]2Oc3cc(-c4cccc(C(=O)N(C)C)c4)ccc3S(=O)(=O)N([C@H](C)CO)C[C@H]2C)c1,-21
-30,-27,0.5,CN1CCN(C(=O)C[C@H]2CC[C@@H]3[C@H](COC[C@H](O)CN3C(=O)Nc3cc(Cl)cc(Cl)c3)O2)CC1,0.3
-4,-20,0.7,COc1cccc(-c2cnc(C(O)c3cc(C)ccc3C)[nH]2)c1 (configuration not stated),5.7

One compound at a time (already shown). Screens in order: rRNA inh HTS, rRNA inh HTS OD600, rRNA inh HTS RFP, AF4-AF9 inh
`C[C@@H]1CN([C@H](C)CO)C(=O)c2cc(C#CC3(O)CCCC3)cnc2O[C@H]1CN(C)C(=O)CC1CC1` across the screens: 3, 8, 0.7, -2.2
`COc1ccc(-c2ccc([C@H]3[C@H](C#N)N(C(=O)NC(C)C)[C@H]3CO)cc2)cc1` across the screens: 17, -11, -4.2, -0.1

More entries.
rRNA inh HTS,rRNA inh HTS OD600,rRNA inh HTS RFP,Molecule,AF4-AF9 inh
0,-3,35,COCOc1ccc(-c2ncc(OCCN3CCCC3=O)nc2NC(=O)c2cc3ccccc3s2)cc1,0.1
0,4,2.2,C[C@@H]1CN([C@H](C)CO)C(=O)c2cccc(NC(=O)c3ccncc3)c2O[C@@H]1CN(C)C(=O)Nc1cccc2ccccc12,-2.6
-9,-6,-2.0,Nc1ccn([C@@H]2O[C@H](C(=O)N3CCSC3)[C@@H](O)[C@H]2O)c(=O)n1,-2.2
1,12,1.3,C[C@@H]1CN([C@@H](C)CO)C(=O)c2cc(N(C)C)ccc2O[C@@H](C)CCCCO[C@H]1CN(C)C(=O)c1ccncc1,-2.8
4,13,1.6,CCCNC(=O)N1[C@@H]2Cn3c(ccc(-c4ccccc4OC)c3=O)[C@H]1[C@@H](C(=O)N(C)C)[C@@H]2CO,-0.1
0,-1,-0.7,CNC[C@@H]1Oc2ccc(NC(=O)Nc3ccc4c(c3)OCO4)cc2CC(=O)N([C@H](C)CO)C[C@H]1C,-0.8
2,-2,-2.6,C[C@@H]1CN([C@@H](C)CO)C(=O)c2cccc(NS(=O)(=O)c3ccc(F)cc3)c2O[C@H]1CN(C)CC1CC1,1.5
3,6,0.5,C[C@H]1CN([C@@H](C)CO)C(=O)c2cc(NS(=O)(=O)c3ccccc3)ccc2O[C@@H]1CN(C)S(=O)(=O)c1cn(C)cn1,-1.9

(next part)
rRNA inh HTS,rRNA inh HTS OD600,rRNA inh HTS RFP,Molecule,AF4-AF9 inh
2,0,0.2,CC(C)NC(=O)Nc1ccc2c(c1)C(=O)N([C@@H](C)CO)C[C@@H](C)[C@H](CN(C)C(=O)NC1CCCCC1)O2,-22
-2,2,0.6,CO[C@@H]1CN(C)C(=O)c2ccc(NC(=O)c3cccc(F)c3)cc2OC[C@@H](C)N(C(C)=O)C[C@@H]1C,0.1
5,-11,7.2,Cc1cccc(S(=O)(=O)N2CCCCN3[C@H](CO)[C@@H](c4ccc(C#C[C@H](C)O)cc4)[C@H]3C2)c1,3.4
-1,-4,-4.7,O=C(NCC(F)(F)F)[C@H]1[C@H](CO)[C@H]2Cn3c(cccc3=O)[C@H]2N1C(=O)C1CCC1,-2.1
-2,4,-1.0,CO[C@@H]1CN(C)C(=O)c2cc(NC(=O)C3CC3)ccc2OC[C@H](C)N(Cc2cccnc2)C[C@H]1C,-2.9
-4,10,-0.2,CCCNC(=O)N1[C@@H]2CN(C(=O)Nc3ccc(F)cc3)c3ccccc3[C@@H]2[C@@H]1CO,0.6
-5,0,2.2,COc1cccc(C(=O)Nc2ccc3c(c2)OC[C@@H](C)N(CCc2ccccc2)C[C@@H](C)[C@H](OC)CN(C)C3=O)c1,0.7
0,1,-2.2,COC(=O)[C@@H]1[C@@H](CO)[C@@H]2Cn3c(ccc(C4=CCCC4)c3=O)[C@@H]2N1C(=O)C1CC1,-1.7

The listing continues.
rRNA inh HTS,rRNA inh HTS OD600,rRNA inh HTS RFP,Molecule,AF4-AF9 inh
0,8,-0.6,C[C@H]1CCCCO[C@@H](CN(C)CC2CC2)[C@@H](C)CN([C@@H](C)CO)C(=O)c2cc(NC(=O)c3ccccc3)ccc2O1,7.7
1,-11,2.7,O=C(Nc1ccc(F)cc1)N1CCCCN2[C@H](CO)[C@@H](c3ccc(-c4ccncc4)cc3)[C@@H]2C1,-5.3
1,5,-4.7,O=C([C@H]1[C@H](CO)[C@H]2Cn3c(cccc3=O)[C@@H]1N2CC1CCCC1)N1CCOCC1,-1.4
-6,-9,-2.1,C[C@H](CO)N1C[C@H](C)[C@@H](CN(C)Cc2ccc(-c3ccccc3)cc2)Oc2c(NC(=O)C3CCOCC3)cccc2C1=O,4.2
5,4,-0.4,CCC(=O)Nc1ccc2c(c1)C(=O)N(C)C[C@H](OC)[C@@H](C)CN(C(=O)c1ccncc1)[C@H](C)CO2,-1.5
-9,-6,5.5,C/C=C/c1ccc2c(c1)O[C@@H](CN(C)Cc1ccncc1)[C@@H](C)CN([C@H](C)CO)S2(=O)=O,-4.5
13,14,0.3,Nc1[nH]c(=O)ncc1-c1ccc([N+](=O)[O-])cc1,-3.4
3,4,0.0,C[C@@H]1CN([C@@H](C)CO)C(=O)c2cc(NC(=O)Nc3ccc4c(c3)OCO4)ccc2O[C@@H](C)CCCCO[C@H]1CN(C)Cc1ccc(C(=O)O)cc1,0.3

Additional compounds:
rRNA inh HTS,rRNA inh HTS OD600,rRNA inh HTS RFP,Molecule,AF4-AF9 inh
11,6,0.8,C[C@H]1CN([C@@H](C)CO)C(=O)c2cc(-c3ccc(F)cc3)cnc2O[C@@H]1CN(C)CC1CCCC1,-7.3
1,-8,1.4,C[C@H]1CN([C@@H](C)CO)C(=O)Cc2cc(NC(=O)Cc3ccccc3)ccc2O[C@H]1CN(C)S(=O)(=O)c1ccc(F)cc1,-1.9
-1,-9,0.3,CCC(=O)N1CC2(CCN(C(=O)c3cccnc3)CC2)c2c([nH]c3cc(OC)ccc23)[C@H]1CO,-2.6
0,-3,-2.1,CN(C)C(=O)C[C@H]1C=C[C@H](NC(=O)Nc2cccc(F)c2)[C@@H](CO)O1,-15
-58,-78,-6.7,O=C(C1CC1)N1CCCCN2[C@H](CO)[C@@H](c3ccc(C#CC4CCCC4)cc3)[C@@H]2C1,4.0
5,9,1.3,C[C@H]1CN([C@@H](C)CO)S(=O)(=O)c2ccc(C#Cc3cccnc3)cc2O[C@H]1CN(C)C(=O)CN(C)C,-8.3
2,-23,39,Cc1ccc(S(=O)(=O)N[C@@H]2C=C[C@@H](CC(=O)N3CCC(Cc4ccccc4)CC3)O[C@@H]2CO)cc1,-4.9
2,-2,0.0,C[C@@H]1CN([C@@H](C)CO)C(=O)c2cccc(NC(=O)c3cnccn3)c2O[C@@H]1CN(C)C(=O)NC1CCCCC1,-2.5

(list continues)
rRNA inh HTS,rRNA inh HTS OD600,rRNA inh HTS RFP,Molecule,AF4-AF9 inh
-22,-44,26,CC(C)CC#Cc1ccc([C@@H]2[C@H]3CN(C(=O)Nc4ccccc4)CCCCN3[C@H]2CO)cc1,0.4
-2,-4,-0.8,CCCC(=O)Nc1ccc2c(c1)C(=O)N(C)[C@@H]1CC[C@H](CC(=O)NCC3CCCCC3)O[C@H]1CO2,-2.0
-9,-53,15,CCc1cnc(N2[C@H](C#N)[C@H](c3ccc(C#CCC4CCCC4)cc3)[C@@H]2CO)s1,2.2
1,1,0.9,COCCNC(=O)C[C@H]1CC[C@@H]2[C@@H](COc3ccc(NC(=O)c4ccno4)cc3C(=O)N2C)O1,-2.0
-2,-1,-5.9,COCC#Cc1ccc2c(c1)O[C@H](CN(C)C(=O)C1CCCCC1)[C@H](C)CN([C@H](C)CO)S2(=O)=O,-0.5
1,-1,-2.6,CCNC(=O)[C@@H]1[C@@H](CO)[C@@H]2Cn3c(ccc(-c4ccccc4)c3=O)[C@@H]2N1CC,-2.4
6,12,1.2,CCCN1C[C@@H](C)[C@@H](OC)CN(C)C(=O)c2cc(NC(=O)NC3CCCC3)ccc2OC[C@@H]1C,-2.2
-1,5,-0.9,C[C@@H]1CN([C@@H](C)CO)C(=O)c2cccc(NC(=O)c3cnccn3)c2O[C@H]1CN(C)S(=O)(=O)c1ccc(F)cc1,-4.7

Other results follow.
rRNA inh HTS,rRNA inh HTS OD600,rRNA inh HTS RFP,Molecule,AF4-AF9 inh
4,6,-2.3,C[C@@H]1CN([C@@H](C)CO)C(=O)c2cccc(NS(=O)(=O)c3cn(C)cn3)c2O[C@@H]1CN(C)CC1CCCCC1,0.4
1,-1,-0.6,COc1ccc(CN2C[C@@H](C)[C@@H](OC)CN(C)C(=O)c3cc(NC(C)=O)ccc3OC[C@H]2C)cc1,-0.8
-52,-72,-18,COc1cc(F)ccc1-c1cc(C(=O)NCC2CCCCC2)[nH]n1,-4.4
-1,-1,-1.6,Cc1noc(C)c1NC(=O)Nc1cccc2c1O[C@@H](CN(C)CC1CCCCC1)[C@H](C)CN([C@H](C)CO)C2=O,-0.5

Source: PubChem (Broad Institute)
